Cruzain inh Det: blocks cruzain activity in presence of Triton detergent | P25779 | purified cruzain, Z-FR-AMC fluorescence, 0.01% Triton | Potency, µM, inactives show max response, negative = inhibition, hits mostly inhibitors | 200,000 tested, 0.43% active | AID 1478; active = well fitted curve in the direction sought with a large enough effect; inconclusive = small, poorly fitted or top-dose-only effect, or another doubt; inactive = no such curve, though single readings can be large; an effect the other way counts as inactive or inconclusive;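 also: plate controls were neutral wells for no effect and buffer without enzyme for full effect; nearly all actives have a fitted effect of over 40% in size; top concentration of the series not given in the record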
Target sequence (P25779 123-467 limits assumed): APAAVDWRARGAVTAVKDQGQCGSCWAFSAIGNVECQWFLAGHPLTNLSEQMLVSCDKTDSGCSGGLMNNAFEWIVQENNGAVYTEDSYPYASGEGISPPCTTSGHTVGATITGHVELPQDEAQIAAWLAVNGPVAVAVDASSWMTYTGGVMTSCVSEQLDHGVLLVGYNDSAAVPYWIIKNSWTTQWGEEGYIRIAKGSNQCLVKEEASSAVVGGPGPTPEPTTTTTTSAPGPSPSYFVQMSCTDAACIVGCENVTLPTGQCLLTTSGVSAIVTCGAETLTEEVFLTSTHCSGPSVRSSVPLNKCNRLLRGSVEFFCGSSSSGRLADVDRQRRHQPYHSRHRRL
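Detergent-containing run (0.01% Triton X-100) in acetate buffer pH 5.5 with 5 mM DTT: enzyme at 1.5 nM final, 15 min compound preincubation at room temperature, then 2 uM Z-FR-AMC substrate. Activity taken as 60 s fluorescence increase at 360/450 nm.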
NS1 function inh: influenza NS1 inhibition | Potency, µM (highest dose often 46.1 µM), without a hit: at the top dose activity, positive = more growth | 270,000 tested, 0.4% active | S. cerevisiae slowed by influenza A NS1, growth recovery by OD600; also: actives are rising curves; nearly all actives have a fitted effect of over 50% in size
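OD600 was taken as the measure of yeast growth restored by compound in an NS1-expressing S. cerevisiae strain. Cells had been washed out of glucose medium and diluted 1:100 into galactose -URA medium, pH 6.0.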
Lassa entry inh: Lassa virus entry inhibition; Lassa virus pseudotype entry inhibition, cell reporter; control for the full effect not named in the record; 300,000 tested, 1.2% active; AID 540256; Potency, µM (titrated, usually from 37.9 µM), for the others: top-dose activity change, negative = inhibition, actives largely listed as inhibitors; active means well fitted inhibition curve with a large enough effect; inconclusive means small, poorly fitted or top-dose-only effect, or effect the other way; inactive means flat fitted curve, though single readings scatter; tested in HEK293 cells; also: % is scaled to controls: 0 for no effect and ±100 for the full control effect; nearly all actives have a fitted effect of over 50% in size; luciferase read-out
SARS PLpro yeast: blocks SARS-CoV papain-like protease in a yeast assay. S. cerevisiae expressing SARS-CoV PLpro, growth rescue; control for the full effect not named in the record. Potency, µM (doses to about 32.9 µM), without a hit: top-dose activity, positive = growth rescue. 330,000 tested, 0.19% active. AID 485353; also: 0% is about no effect; nearly all actives have a fitted effect of over 55% in size; growth read by luminescence after 48 h
RE007 growth inh: less growth of the S. pombe RE007 Vpr strain. S. pombe RE007 Vpr strain, BacTiter-Glo ATP luminescence, 24 h; control for the full effect not named in the record. Potency, µM (titrated, usually from 92.2 µM), for inactives: at the highest dose activity change, negative = less growth. 360,000 tested, 0.21% active. AID 651644; active = well fitted falling curve with a large enough effect; inconclusive = small, poorly fitted or top-dose-only effect; inactive = no such curve, though single readings can be large or run the other way;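 also: % is scaled to controls: 0 for no effect and ±100 for the full control effect; nearly all actives have a fitted effect of over 50% in size; the assay follows cell death caused by Vpr and the record does not say whether a fall means rescue or toxicity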
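Fission yeast RE007 carrying one integrated HIV-1 vpr copy, seeded at OD 0.01 in PMG+AL medium with 23 nL pinned compound. Grown 24 h at 30 degrees; viability read by BacTiter-Glo luminescence after 5 min.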
2A StopGo: FMDV 2A StopGo reporter, luciferase signal. human cells with a luciferase reporter of 2A StopGo recoding; control for the full effect not named in the record. Potency, µM (highest dose often 57.9 µM), for inactives: at the top dose signal change, negative = less light. 410,000 tested, 1.2% active. AID 1159524; active = well fitted falling curve with a large enough effect; inconclusive = small, poorly fitted or top-dose-only effect; inactive = no such curve, though single readings can be large or run the other way; tested in HEK293T cells; also: % is scaled to controls: 0 for no effect and ±100 for the full control effect; nearly all actives have a fitted effect of over 45% in size; luciferase light after 4 h
MARV entry inh: blocks Marburg virus binding to or entry into cells; Marburg virus pseudotyped entry inhibition, cell reporter; control for the full effect not named in the record; about a third of the inactives were read at about 46 µM; Potency, µM (highest dose often 37.8 µM), inactives show at the top dose activity change, negative = inhibition, most hits filed as inhibitors; 300,000 tested, 1.8% active; AID 540276; active = well fitted inhibition curve with a large enough effect; inconclusive = small, poorly fitted or top-dose-only effect, or effect the other way; inactive = flat fitted curve, though single readings scatter; tested in HEK293 cells; about a fifth of its hits are not listed in these tables; also: % is scaled to controls: 0 for no effect and ±100 for the full control effect; luciferase read-out
Cruzain inh noDet: inhibitors of Trypanosoma cruzi cruzain without detergent; P25779; purified cruzain, Z-FR-AMC fluorescence, no detergent; AID 1476; 200,000 tested, 2.3% active; Potency, µM, for inactives: max response, negative = inhibition, most hits filed as inhibitors; active = well fitted curve in the direction sought with a large enough effect; inconclusive = small, poorly fitted or top-dose-only effect, or another doubt; inactive = no such curve, though single readings can be large; an effect the other way counts as inactive or inconclusive;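 also: plate controls were enzyme without inhibitor for no effect and buffer without enzyme for full effect; nearly all actives have a fitted effect of over 40% in size; top concentration of the series not given in the record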
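Detergent-free condition (0.00005% Triton X-100) in acetate buffer pH 5.5 with DTT. 1.5 nM enzyme and compound were pre-mixed 15 min, then 2 uM Z-FR-AMC substrate added; reaction progress from fluorescence change between first and third reads (60 s).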
Numbers without * were called inactive; ? = inconclusive; . = not tested or not shown; & = joins results of further samples; ! = repeats disagree; [ ] = remark or other dose. Unless noted, calls follow the shape of the dose curve; as a rule, active means well fitted rising curve with a large enough effect; inconclusive means small, poorly fitted or top-dose-only effect; inactive means no such curve, though single readings can be large or run the other way. Potency is read from the fitted curve at half-maximal effect.

SMILES	Cruzain inh Det	NS1 function inh	Lassa entry inh	SARS PLpro yeast	RE007 growth inh	2A StopGo	MARV entry inh	Cruzain inh noDet
NC(=O)COn1c(SCC(N)=O)nc2ccccc2c1=O	.	4%	22%	0%	24%	6%	12%	.
C/C(CC(=O)Nc1ccc([N+](=O)[O-])cc1)=N\NC(=O)c1ccccc1O	.	-37%	.	-3%	-11%	10%	.	.
CCc1ccc(-c2cc(C)no2)cc1S(=O)(=O)N1CCN(C(=O)c2ccco2)CC1	.	-19%	-15%[46.1 µM]	-2%	7%	-14%	-20%[46.1 µM]	.
COc1ccc2nc(NC(=O)c3ccco3)sc2c1	.	-34%	.	-7%	?	-30%	.	.
O=C1c2ccccc2-c2nnc(-c3ccc(O)cc3)cc21	.	1%	?	-2%	-18%	27%	?	.
O=C(O)Cn1cc(/C=N/Nc2ccc([N+](=O)[O-])cn2)c2ccccc21	.	-2%	24%	0%	-6%	6%	6%	.
COc1ccc(C2CN(C)CC2C(=O)c2ccc(C)cc2)cc1Cl (stereo not given)	.	.	-23%	2%	-13%	-7%	?	.
O=c1[nH]c(CN2CCN(S(=O)(=O)/C=C/c3ccccc3)CC2)nc2ccccc12	.	.	-7%[46.1 µM]	3%	6%	1%	?	.
O=C(O)CCNS(=O)(=O)c1ccccc1	6.7%	?	8%	3%	?	-7%	-14%	2%
Cc1oc2ccc(OS(C)(=O)=O)cc2c1C(=O)OC(C)C	.	.	-6%	-12%	-15%	-21%	-16%[46.1 µM]	.
COc1cccc(N(CC(=O)N2CCN(C)CC2)S(=O)(=O)c2ccccc2)c1	3.0%	-3%	17%	7%	6%	.	10%	-6%
CCn1c(SCC(=O)N2CCCc3ccccc32)nnc1-c1ccoc1C	4.1%	-5%	-10%	6%	-5%	-12%	?	-5%
COc1ccc(NS(=O)(=O)c2cccc(C(=O)NNC(=O)CNC(=O)c3ccc(C)cc3)c2)cc1	.	.	-1%	1%	-7%	-5%	0%	.
Cc1c(Cl)cccc1NC(=O)CSc1nc(=O)n(Cc2cccnc2)c2c1CCC2	-3.7%	.	0%[46.1 µM]	.	.	-18%	.	-8%
CCOC(=O)C1(Cc2ccccc2C)CCCN(C(=O)c2ccoc2)C1 (stereo not given)	.	-5%	?	0%	6%	41%[activator]	17%	.
CC(=O)c1c(C)[nH]c(C(=O)C(C)Sc2nnc(NC3CC3)s2)c1C (stereo not given)	.	.	?	7%	?	?	?	.
CC(=O)c1cccc(NC(=O)Cc2ccc(NC(=O)N3CCCCc4ccccc43)cc2)c1	-8.3%	.	19%[46.1 µM]	.	.	-27%	.	?
COc1ccc(N2C(=O)CSC2c2ccc(F)c(F)c2)cc1 (stereo not given)	.	-1%	8%[46.1 µM]	2%	5%	-18%	-1%[46.1 µM]	.
CCOC(=O)CSc1n[nH]c(-c2cccnc2)n1	4.2%	-5%	-16%	?	-4%	-7%	-8%	-10%
Oc1cccc(/C=N/n2c(C3CCCCC3)n[nH]c2=S)c1	.	-9%	?	2%	15%	9%	16%	.

Profiles, looked up by structure. Order of screens: Cruzain inh Det | NS1 function inh | Lassa entry inh | SARS PLpro yeast | RE007 growth inh | 2A StopGo | MARV entry inh | Cruzain inh noDet
Profile of `Oc1cccc(/C=N/n2c(C3CCCCC3)n[nH]c2=S)c1` → . | -9% | ? | 2% | 15% | 9% | 16% | .
Profile of `COc1ccc(C2CN(C)CC2C(=O)c2ccc(C)cc2)cc1Cl` (stereo not given) → . | . | -23% | 2% | -13% | -7% | ? | .
Profile of `CCOC(=O)C1(Cc2ccccc2C)CCCN(C(=O)c2ccoc2)C1` (stereo not given) → . | -5% | ? | 0% | 6% | 41%[activator] | 17% | .
Profile of `COc1cccc(N(CC(=O)N2CCN(C)CC2)S(=O)(=O)c2ccccc2)c1` → 3.0% | -3% | 17% | 7% | 6% | . | 10% | -6%

Other structures:
SMILES	Cruzain inh Det	NS1 function inh	Lassa entry inh	SARS PLpro yeast	RE007 growth inh	2A StopGo	MARV entry inh	Cruzain inh noDet
O=C(O)c1ccc(CNC(=O)c2ccc(C(F)(F)F)cc2)cc1	.	.	11%	-1%	0%	17%	-1%[46.1 µM]	.
O=S1(=O)C=CC(Nc2ccccc2)C1 (stereo not given)	3.4%	-12%	-9%	0%	-22%	0%	6%	0%
Cc1onc(-c2ccccc2Cl)c1C(=O)OCC(=O)c1c(N)n(C)c(=O)n(C)c1=O	.	-3%	?	-1%	11%	2%	?	.
COc1cc(/C=C2\C(=N)N3N=C(S(C)(=O)=O)SC3=NC2=O)ccc1OCCOc1ccc(C)cc1	.	1%	.	-1%	14%	?	.	.
CCCCCn1c(=N)c(S(=O)(=O)c2ccccc2)cc2c(=O)n3cccc(C)c3nc21	-0.9%	.	?	.	.	-13%	-26%[46.1 µM]	-6%
Cc1cc(C(=O)N2CCCC(N3CCN(Cc4ccc5c(c4)OCO5)CC3)C2)n[nH]1 (stereo not given)	.	-2%	24%[46.1 µM]	0%	18%	-8%	-1%[46.1 µM]	.
Cc1ccccc1-c1nnn(CC(=O)Nc2ccc3c(c2)OCO3)n1	.	1%	.	0%	-5%	29%	.	.
CC1CCN(C(=O)c2ccc(N3C(=O)C4CCC(C)CC4C3=O)cc2)CC1 (stereo not given)	.	-1%	11%	1%	7%	-7%	3%[46.1 µM]	.
O=C(C1CC1)N1CCc2cc(Br)cc(S(=O)(=O)NCc3ccco3)c21	-0.8%	-10%	-2%	6%	22%	45%[activator]	?	1%
Cc1cc(C(=O)OCC(=O)N2CC(C)OC(C)C2)c(C)n1-c1ccccc1 (stereo not given)	.	.	-9%	2%	0%	-14%	5%	.
CC1CCCN(C(=O)CNC(=O)Cn2ccc3ccccc3c2=O)C1 (stereo not given)	2.3%	?	.	-5%	1%	-25%	0%	1%
O=C(CCc1nc2ccccc2c(=O)[nH]1)OCc1ccc(Cl)cc1Cl	-3.0%	15%	3%	-4%	4%	-19%	4%	6%
Cc1nnc(N/N=C/c2cccs2)[nH]c1=O	.	-3%	.	0%	-1%	-10%	.	.
CCOCCCNC(=O)c1cc2sc(Cl)cc2n1CC	-7.0%	-1%[9.22 µM]	?	1%	?	4%	?	10%
Cc1ccc(OCC(=O)Nc2nnc(-c3ccco3)s2)cc1	.	5%	22%	-2%	7%	2%	-1%[46.1 µM]	.
Cc1ccc(CN2CCN(C(=O)c3cccc4ccccc34)CC2)cc1	.	-22%	?	4%	?	0%	?	.
CCNC(=O)CSc1nc2ccccc2c(=O)n1-c1cc(OC)ccc1OC	1.7%	-6%	-20%[14.3 µM]	0%	-16%	10%	-19%	1%
CCN(C(=O)CSc1ncn[nH]1)C1CCCCC1	6.7%	-6%	8%	0%	22%	-18%	-18%	-12%
COc1cc(C(=O)Nc2ccc3nc4n(c(=O)c3c2)CCCCC4)cc(OC)c1OC	-5.3%	-27%	-12%[46.1 µM]	?	-8%	10µM*!	-15%&-15%[46.1 µM]	?
Cc1ccc(Cn2c(CNC(=O)Cc3cccc([N+](=O)[O-])c3)nc3cccnc32)cc1	-1.4%	.	-6%[46.1 µM]	.	.	7%	.	3%

As entered above:
Reading for Cc1ccc(Cn2c(CNC(=O)Cc3cccc([N+](=O)[O-])c3)nc3cccnc32)cc1 in 2A StopGo: 7%
Reading for COc1cc(C(=O)Nc2ccc3nc4n(c(=O)c3c2)CCCCC4)cc(OC)c1OC in Lassa entry inh: -12%[46.1 µM]

Remaining list, next part
SMILES	Cruzain inh Det	NS1 function inh	Lassa entry inh	SARS PLpro yeast	RE007 growth inh	2A StopGo	MARV entry inh	Cruzain inh noDet
COC(=O)[C@@]1(Cc2ccc(F)cc2)[C@H]2c3cc(C(=O)N4CCCC4)n(CCO)c3C[C@H]2CN1C(=O)c1ccccc1	-1.3%&2.2%	-11%	-16%	12%	10%	-24%	-4%	?
O=C(CCCc1nc(-c2ccccc2Cl)no1)NC1CCCCC1	-3.3%	?	-5%	1%	-24%	-18%	?	0%
COc1cccc2cc(-c3nnc(Nc4ccccc4C)s3)c(=O)oc12	3.3%	.	7%[46.1 µM]	.	.	43%[activator]	.	6%
CCOc1ccc(NC(=O)Cn2cc(C(=O)c3ccc(OCC)cc3)c(=O)c3cc4c(cc32)OCCO4)cc1	-3.2%	.	-2%[46.1 µM]	.	.	?	9%[46.1 µM]	-9%
CCOC(=O)C1CC(=O)c2ccccc2C1c1ccccc1 (stereo not given)	.	.	-9%[46.1 µM]	.	-2%	-15%	?	.
O=C(Cn1nnc(-c2cccc(C(F)(F)F)c2)n1)N1CCOCC1	3.0%	-2%	7%	0%	-17%	10%	-2%	15%
COc1ccc(CNC(=O)CN(C(=O)c2csnn2)c2ccc3c(c2)OCCO3)cc1	.	15%	-2%[46.1 µM]	5%	24%	26%	?	.
CCCS(=O)(=O)N1CCN(C(=O)c2cccs2)CC1	2.0%	0%	-2%	0%	-9%	-6%	?	-22%
O=C(c1ccc(F)cc1)N1CCN(C2CCCCC2)CC1	.	3%	.	-2%	0%	-9%	.	.
C(=C\c1ccccc1)/C=N/N1CCN(Cc2ccccc2)CC1	.	.	?	-1%	-8%	18%	-2%[46.1 µM]	.
O=C(COc1ccc(/C=N/NC(=O)CSCc2ccc([N+](=O)[O-])cc2)cc1)NCc1ccco1	-8.1%	5%	?	1%	0%	?	11µM*	-5%
CN1CCN(c2ccccc2N)CC1	7.7%	11%	3%	.	1%	3%	25%[46.1 µM]	4%
CC(=O)c1ccc(N2CCN(C(=O)C3CCN(S(=O)(=O)c4cn(C)cn4)CC3)CC2)cc1	-4.8%	.	8%[46.1 µM]	.	.	-6%	.	-8%

An excerpt from above, showing only SARS PLpro yeast, Cruzain inh Det and Cruzain inh noDet:
structure	SARS PLpro yeast	Cruzain inh Det	Cruzain inh noDet
CCCS(=O)(=O)N1CCN(C(=O)c2cccs2)CC1	0%	2.0%	-22%
O=C(c1ccc(F)cc1)N1CCN(C2CCCCC2)CC1	-2%	.	.

High-throughput results from PubChem.
